VACV mCherry inh = inhibitors of vaccinia virus infection (mCherry reporter signal); Potency, µM (titrated, usually from 36.5 µM), for inactives: at the top dose activity change, negative = inhibition, hits mostly inhibitors; hit rate 0.63% among 310,000; AID 720579; Vaccinia virus mCherry reporter infection, fluorescence; about a quarter of the inactives have no number; active = well fitted inhibition curve with a large enough effect; inconclusive = small, poorly fitted or top-dose-only effect; inactive = no such curve, though single readings can be large or run the other way; tested in A549 cells; further: nearly all actives have a fitted effect of over 35% in size; inactives centre near -10
VACV Venus inh = vaccinia inhibition (Venus reporter). Vaccinia virus Venus reporter expression, fluorescence. Potency, µM (top dose mostly 36.5 µM), for inactives: at the highest dose activity change, negative = inhibition, hits mostly inhibitors. hit rate 0.46% among 330,000. AID 720580; active means well fitted inhibition curve with a large enough effect; inconclusive means small, poorly fitted or top-dose-only effect; inactive means no such curve, though single readings can be large or run the other way; tested in A549 cells; further: nearly all actives have a fitted effect of over 30% in size; inactives centre near -10
* marks the source's active call; other numbers are inactive results; i = inactive; ? = inconclusive; · = no result given; & = joins results of further samples. On the % scale 0 is the no-effect control and ±100 the full control effect; potency means the concentration at half of the fitted maximal effect. Rows are unselected. About 0.82% of those tested had a hit in this group.

Start of the listing, in advance:
SMILES	VACV mCherry inh	VACV Venus inh
COc1ccc(/C=C/c2nc(-c3ccccc3)cc(=O)[nH]2)cc1	i	-4%
Cc1nc(C)c(C(=O)N2CCc3c(cnc(C)c3CNC(=O)c3cncs3)C2)s1	-4%	-5%
COc1ccc(CNC(=O)Cc2coc3ccc(C(C)C)cc23)cc1	-5%	-2%
C/C=C/C(=O)NCCc1ccc(OC)c(OC)c1	-2%	-7%

The list itself, previewed entries included:
SMILES	VACV mCherry inh	VACV Venus inh
COc1ccc(/C=C/c2nc(-c3ccccc3)cc(=O)[nH]2)cc1	i	-4%
Cc1nc(C)c(C(=O)N2CCc3c(cnc(C)c3CNC(=O)c3cncs3)C2)s1	-4%	-5%
COc1ccc(CNC(=O)Cc2coc3ccc(C(C)C)cc23)cc1	-5%	-2%
C/C=C/C(=O)NCCc1ccc(OC)c(OC)c1	-2%	-7%
COCCn1c(SCc2cccc([N+](=O)[O-])c2)nc2ccccc2c1=O	?	-6%
C=CCN(CC=C)C(=O)c1ccccc1NC(=O)c1ccccc1C	·	-8%
CNCCCCOc1ccc(C(C)(C)C)cc1Cl	-17%	-7%
COc1ccc(C(CC(=O)Nc2nccs2)C(C)C)cc1 (stereo not drawn)	-4%	-5%
COc1ccc(-n2nnc3c(SCC(=O)OCc4ccccc4)ncnc32)cc1	·	2%
COc1ccc(CCNC(=O)C2CCN(S(=O)(=O)c3cccs3)CC2)cc1OC	-14%	5%
CN(C)/C=C(\C#N)c1nc2ccccc2[nH]1	i	-1%
COc1ccc(NC(=O)N(C)C[C@H]2Oc3c(NC(=O)Nc4ccc(C(F)(F)F)cc4)cccc3C(=O)N([C@H](C)CO)C[C@@H]2C)cc1	-16%	?
CCOc1ccccc1NC(=O)c1sc2ncn(CC(=O)N3CCOCC3)c(=O)c2c1C	-2%	0%
O=C1C(=O)N(C2CCN(S(=O)(=O)c3ccc(F)cc3)CC2)CCN1Cc1ccccc1	-7%	-7%
COc1ccc(OC)c(-n2nnnc2SCC(=O)O)c1	-13%	0%
CCOc1ccc(NS(=O)(=O)c2ccc3[nH]cc(C(=O)N(CC)CC)c(=O)c3c2)cc1	-5%	-6%
CCC(=O)c1cn(CC(=O)Nc2ccc(F)cc2)c2ccccc12	i	-8%
O=C1NC(=S)N/C1=C/c1cc2c(cc1[N+](=O)[O-])OCO2	-5%	-13%
CC(C)(C)c1oc(C(=O)O)cc1CN1CCOCC1	i	-3%
CCOC(=O)c1[nH]c2ccccc2c1NC(=O)c1ccc(Br)o1	-8%	-27%

Laid out differently: entries from further up.
Values in the order – VACV mCherry inh	VACV Venus inh
O=C1C(=O)N(C2CCN(S(=O)(=O)c3ccc(F)cc3)CC2)CCN1Cc1ccccc1
  -7%	-7%
CC(C)(C)c1oc(C(=O)O)cc1CN1CCOCC1
  i	-3%
CCOc1ccccc1NC(=O)c1sc2ncn(CC(=O)N3CCOCC3)c(=O)c2c1C
  -2%	0%
CCC(=O)c1cn(CC(=O)Nc2ccc(F)cc2)c2ccccc12
  i	-8%
O=C1NC(=S)N/C1=C/c1cc2c(cc1[N+](=O)[O-])OCO2
  -5%	-13%
COc1ccc(OC)c(-n2nnnc2SCC(=O)O)c1
  -13%	0%
CN(C)/C=C(\C#N)c1nc2ccccc2[nH]1
  i	-1%

Next section
SMILES	VACV mCherry inh	VACV Venus inh
O=C(c1ccc(-c2nnc(Nc3ccccc3)c3ccccc23)cc1)N1C[C@H]2C[C@H](C1)c1cccc(=O)n1C2	·	-19%
CCCCCCCCN1[C@@H](CC(=O)OC)c2cc(F)ccc2S1(=O)=O	-2%	-6%&-10%
Cc1ccc([C@@H]2CC=C(C(=O)O)[C@H](c3ccccc3)N2S(=O)(=O)c2ccc(C)cc2)cc1	-12%	-4%
CC(C)n1ncc2c(C(=O)Nc3ccccc3SCC(N)=O)cc(C3CC3)nc21	-18%	-17%
COc1cc(/C=C/C(=O)N2c3ccccc3Sc3ccc(C(F)(F)F)cc32)cc(OC)c1OC	-2%	-9%
Cc1ccc(C)c(NC(=O)C(Sc2nncn2C)c2ccccc2)c1 (stereo not drawn)	-13%	-13%
Cc1ccc(NC(=O)c2ccc3c(c2)C(=O)N(Cc2cccnc2)C3=O)c(C)c1	-9%	-7%
O=C(COC(=O)c1ccccc1O)Nc1ccc(S(=O)(=O)N2CCCCC2)cc1	-1%	1%
CCOc1ccc(OCC)c(NC(=O)C2CCN(S(=O)(=O)c3cn(C)cn3)CC2)c1	-10%	-3%
CC1Cc2ccccc2N1C(=O)CSc1nncn1C (stereo not drawn)	-6%	-4%
COCCNC(=O)/C(C#N)=C/c1cccc(OCc2ccccc2)c1	-14%	-10%
COc1cc([N+](=O)[O-])ccc1NC(=O)NCCCN1CCCC1=O	-2%	0%
O=C(Cc1ccc(NC(=O)N2CCSc3ncccc32)cc1)NCc1ccccc1	-8%	-11%
COc1ccc(C(=O)Cn2nnc(-c3ccccc3-n3cnnn3)n2)cc1	-4%	2%
COc1ccc(NC(=O)CSc2nc3ccccc3n2CC(=O)N(C)C2CCCCC2)cc1	-13%	10%
COc1cc(NC(=S)N2CCN(c3ccccn3)CC2)cc(OC)c1OC	-7%	-6%
COCCNC(=O)c1ccccc1NC(=O)c1ccccc1N(C)S(=O)(=O)c1ccccc1	·	-8%
Cc1ccc(/C=C/C(=O)Nc2ncc(C)s2)o1	-11%	-6%
CCOC(=O)c1c(S(=O)(=O)N2CCC(C(=O)Nc3cccc(C#N)c3)CC2)c(C)n(C)c1C	-8%	-2%
Cc1oc2c(C)c3oc(=O)c(CCC(=O)NCCN4CCOCC4)c(C)c3cc2c1C	-7%	-5%

3 structures from above, arranged by molecular weight, smallest number first:
SMILES	VACV mCherry inh	VACV Venus inh
Cc1ccc(/C=C/C(=O)Nc2ncc(C)s2)o1	-11%	-6%
COCCNC(=O)/C(C#N)=C/c1cccc(OCc2ccccc2)c1	-14%	-10%
Cc1oc2c(C)c3oc(=O)c(CCC(=O)NCCN4CCOCC4)c(C)c3cc2c1C	-7%	-5%

(continued)
SMILES	VACV mCherry inh	VACV Venus inh
O=C(OCn1nnc2ccccc2c1=O)c1cccs1	-12%	-2%
O=C(Cc1c(F)cccc1Cl)OCN1C(=O)c2ccccc2C1=O	-15%	-4%
O=C(Nc1cccc([N+](=O)[O-])c1)c1ccc(-c2ccccc2)cc1	-11%	-8%
Cc1ccc(S(=O)(=O)N2CCN(C(=O)N3CCCCC3)CC2)c(C)c1	-4%	-15%
CCOc1cc(CNCCc2ccc(S(N)(=O)=O)cc2)ccc1OCC(=O)NC1CCCCC1	·	-12%
C[C@H]1CN([C@@H](C)CO)C(=O)c2cccc(NC(=O)C3CC3)c2O[C@H]1CN(C)Cc1ccncc1	-15%	-7%
O=C(c1ccc2c(c1)N(Cc1ccc(Cl)cc1)C(=O)c1ccccc1S2(=O)=O)N1CCOCC1	13%	-2%
O=C(NCCCn1ccnc1)c1ccc(Cl)c(Cl)c1	-15%	1%
O=C(Nc1nnc(COc2ccc(Cl)cc2)s1)c1ccc([N+](=O)[O-])cc1	·	-13%
O=C(NCCCN1CCCC1=O)c1ccccc1NS(=O)(=O)c1ccc(F)cc1	-11%	-4%
CN(CC(=O)Nc1ccc(F)c(F)c1F)C(=O)C1=NN(c2ccccc2)C(=O)CC1	i	0%
O=C(COC(=O)/C(=C/c1cccs1)c1cccs1)NCc1ccccc1Cl	-1%	-6%
COc1cc(/C=C2\SC(=S)N(CCC(=O)Nc3cccc(O)c3)C2=O)cc(OC)c1OC	-7%	-11%
Cc1cc(C)n2nc(SC(C)C(=O)N3CCCC3)nc2n1 (stereo not drawn)	-17%	-11%
Cc1nc2ccccc2nc1CC(O)(c1ccccc1)c1ccccc1	28%	-7%
Cc1ccc(NC(=O)CSc2nnc(CNC(=O)c3ccco3)n2C)c(C)c1	-11%	-21%
Cc1cccc(Nc2n[nH]c(C)c2[N+](=O)[O-])c1	-23%	-26%
C(=C\c1ccccc1)/CN1CCN(C(c2ccnc3ccccc23)c2nnnn2C2CCCC2)CC1 (stereo not drawn)	14%	-14%
O=C(c1cc(N2C(=O)C3C4CCC(C4)C3C2=O)ccc1Cl)N1CCN(c2ccccc2F)CC1 (stereo not drawn)	-22%	-2%
CCOC(=O)C1=CN(Cc2cccc(F)c2)S(=O)(=O)N(CC)C1c1ccc(Br)cc1F (stereo not drawn)	-9%	-16%
O=C(c1cn(CC2CCCN(Cc3cc4ccccc4s3)C2)nn1)N1CCCC1 (stereo not drawn)	-11%	-2%
CCn1c(OC)nc2c1c(=O)n(C)c(=O)n2C	-5%	4%
CCN(CC)C(=O)c1ccc(COc2ccccc2Cl)cc1	-22%	-17%
Clc1ccccc1-c1nnc(-c2ccccc2Cl)o1	-9%	-22%
COc1ccc(C(=O)C2CCCN(C(=O)c3noc4c3CCCC4)C2)cc1F (stereo not drawn)	-14%	-10%
O=C(NC(=S)N1CCCC1)c1ccccc1	-18%	-11%
Cc1ccc(Cn2nc(-c3ccccc3)nc2-c2ccccc2)cc1	-13%	3%
COc1ccc(-c2cc(OC(=O)c3ccc(Cl)cc3)c3c(C)oc(C)c3c(=O)c2)cc1	5%	23%
O=C(NCc1ccco1)C(Cc1ccccc1)N1C(=O)c2ccccc2C1=O (stereo not drawn)	-7%	-10%
O=C(NCCCN1CCOCC1)c1ccc(-c2ccc(Cl)cc2)o1	-17%	?
c1ccc(-c2nnc3sc(CN4CCC5(CC4)OCCO5)cn23)cc1	i	-15%
COc1ccc(S(=O)(=O)N2CCCCC2)cc1Br	-22%	-10%
CC(Sc1nc2ccccc2s1)C(=O)Nc1ccc2c(c1)OCO2 (stereo not drawn)	-6%	-2%
O=C(CN1CCN(CC(=O)Nc2cccc(F)c2)CC1)Nc1ccc(-c2ccccc2)cc1	0%	0%
CCN1CCN(C(=O)c2c(C)nn(-c3ccc(F)cc3)c2-n2cccc2)CC1	-7%	-4%
CCOc1ccccc1NC(=O)Nc1ccccn1	?	-4%
CCCNC(=O)c1nc(C)n(-c2ccc([N+](=O)[O-])cc2)n1	-7%	-1%
COc1ccc2oc(C(=O)OCC(=O)Nc3ccc(OC)c(S(N)(=O)=O)c3)c(C)c2c1	i	-14%
Cc1cnc(NC(=O)c2ccc3c(c2)C(=O)N(Cc2cccnc2)C3=O)s1	-7%	-8%
CSc1nc(=S)c2[nH]c(=S)[nH]c2[nH]1	-8%	-1%
COCCn1c(=O)[nH]c2cc(C(=O)NCCc3ccc(S(N)(=O)=O)cc3)ccc2c1=O	-11%	6%
CCC(C)NC(=O)C1CCN(S(=O)(=O)c2ccc3c(c2)CC(C)N3C(C)=O)CC1 (stereo not drawn)	i	-17%
CCOC(=O)c1c(NC(=O)CCN2CCOCC2)sc(C)c1-c1ccccc1	i	-20%
CN(C)S(=O)(=O)c1ccc(Cl)c(C(=O)NC2=NCCS2)c1	-4%	-9%
CCOc1ccc(NC(=O)N2CCC(N3CCCCC3)CC2)cc1	-5%	3%
Nc1ccc(CNC(=O)OCC2c3ccccc3-c3ccccc32)cc1	-25%	-17%
C/C(=N\Nc1ccccc1)c1cccs1	?	-2%

For convenience, part of the list above.
SMILES	VACV mCherry inh	VACV Venus inh
COCCn1c(=O)[nH]c2cc(C(=O)NCCc3ccc(S(N)(=O)=O)cc3)ccc2c1=O	-11%	6%
CCC(C)NC(=O)C1CCN(S(=O)(=O)c2ccc3c(c2)CC(C)N3C(C)=O)CC1 (stereo not drawn)	i	-17%
CCOC(=O)c1c(NC(=O)CCN2CCOCC2)sc(C)c1-c1ccccc1	i	-20%

Source: PubChem (National Center for Advancing Translational Sciences (NCATS))
